# Rce1 inh: inhibitors of yeast Ras-converting enzyme; AID 2563; calls only; yeast membranes, quenched prenylated peptide cleavage fluorescence; actives 0.27% (n = 290,000); Q03530;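 active means fall in fluorescence gain of 50% or more versus controls, with final raw signal at or below 3038400; inconclusive means same 50% fall but final raw signal above 3038400; inactive means fall in fluorescence gain under 50%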;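 further: plate controls were neutral control wells for no effect and wells lacking membranes for full effect; tested at 10 µM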
# Target sequence (Q03530 whole entry, looked up): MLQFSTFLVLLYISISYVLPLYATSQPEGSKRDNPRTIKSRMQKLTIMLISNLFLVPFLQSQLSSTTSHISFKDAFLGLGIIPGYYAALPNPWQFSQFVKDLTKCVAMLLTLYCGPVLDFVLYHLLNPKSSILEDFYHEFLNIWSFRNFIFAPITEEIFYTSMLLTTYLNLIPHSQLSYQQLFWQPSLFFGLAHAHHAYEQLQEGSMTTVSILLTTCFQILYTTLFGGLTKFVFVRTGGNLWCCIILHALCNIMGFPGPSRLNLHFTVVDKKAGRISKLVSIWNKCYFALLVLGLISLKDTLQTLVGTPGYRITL
# MT1-MMP act inh: MT1-MMP (human) activation inhibition. P50281. HT1080 RFP-PRO-GFP cells, GFP/RFP ratio fluorescence, overnight; percent of plate control window, DMSO zero. GFP/RFP ratio change, % at 20 µM. actives 0.061% (n = 360,000). AID 651647;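 active means GFP/RFP ratio change of at least 30% with cell ATP level not reduced by more than half and red fluorescence within 50% of control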; further: strong numbers were not always called active
#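 Assay system: HT1080 cells carrying an RFP-PRO-GFP reporter | Dosing: Single dose of 20 µM compound, 1% DMSO final | Incubation: Cells overnight before dosing, compound overnight, 37 °C, 5% CO2 | Evaluation: GFP/RFP fluorescence ratio | Control set: DMSO and RFP-L50D-GFP cell wells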
# CSC inhib: blocks cancer stem cells; cancer stem cell-like cells viability, luminescence; inhibition, % at 7.5 µM; actives 1.1% (n = 300,000); AID 2717;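 active means mean at 75% or more and at least half the replicates too; inconclusive means mean and replicates disagree; tested in HMLE shEcad cells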;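 further: 0% = median of negative and 100% = median of positive control wells; the first replicate is given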
# HIV Env fusion: blocks HIV Env-driven cell-cell fusion. HeLa-JRFL Env/CEM21 cell fusion, luciferase. inhibition, % at 12.3 µM. actives 1.1% (n = 360,000). AID 651610;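 active means mean replicate inhibition score of at least 50 and every replicate individually at or above 50; inconclusive means only one of the two criteria met; inactive means mean below 50 and not all replicates reaching 50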;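 further: 0% = plate neutral controls and 100% = maraviroc near 300 nM; one replicate is shown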
# eIF4H inh: inhibitors of RNA binding by human eIF4H; actives 0.94% (n = 290,000); inhibition, % at 35 µM; eIF4H fluorescence polarization binding assay;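 active means 50% or more with normal probe brightness, or confirmed in later tests; inconclusive means above 50% with abnormal brightness, or retests that disagree; inactive means below 50% or failed in later tests; about a fifth of its hits are not listed in these tables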;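 further: calls also rest on retests at 20 µM and on dose response follow-up; 0% = protein and probe with vehicle and 100% = probe without protein; strong numbers were not always called active; many hits fall short of the cut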
# Yeast UUG start: modulators of start codon recognition fidelity in yeast. actives 0.13% (n = 350,000). S. cerevisiae UUG-firefly luciferase reporter, luminescence/redox ratio. AID 602363. activity score, % at 18.7 µM;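 active means replicate mean at a twofold rise or more, about +100% in these data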;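 further: firefly luciferase made from a UUG start codon reports start codon fidelity; reporter light over untreated wells divided by growth signal over untreated wells; some hits fall short of that in this replicate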
# PABP polyA inh: blocks human PABP binding to poly(A) RNA; P11940; fluorescence polarization; inhibition, % at 35 µM; actives 1% (n = 290,000); AID 2014;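 active means 50% or more with normal probe brightness, or confirmed in later tests; inconclusive means above 50% with abnormal brightness, or retests that disagree; inactive means below 50% or failed in later tests; about a fifth of its hits are not listed in these tables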;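 further: calls also rest on retests at 20 µM and on dose response follow-up; controls were probe without protein and protein plus probe with vehicle; some compounds called inactive have numbers as strong as hits; many hits fall short of the cut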
# Target sequence (P11940 whole entry, looked up): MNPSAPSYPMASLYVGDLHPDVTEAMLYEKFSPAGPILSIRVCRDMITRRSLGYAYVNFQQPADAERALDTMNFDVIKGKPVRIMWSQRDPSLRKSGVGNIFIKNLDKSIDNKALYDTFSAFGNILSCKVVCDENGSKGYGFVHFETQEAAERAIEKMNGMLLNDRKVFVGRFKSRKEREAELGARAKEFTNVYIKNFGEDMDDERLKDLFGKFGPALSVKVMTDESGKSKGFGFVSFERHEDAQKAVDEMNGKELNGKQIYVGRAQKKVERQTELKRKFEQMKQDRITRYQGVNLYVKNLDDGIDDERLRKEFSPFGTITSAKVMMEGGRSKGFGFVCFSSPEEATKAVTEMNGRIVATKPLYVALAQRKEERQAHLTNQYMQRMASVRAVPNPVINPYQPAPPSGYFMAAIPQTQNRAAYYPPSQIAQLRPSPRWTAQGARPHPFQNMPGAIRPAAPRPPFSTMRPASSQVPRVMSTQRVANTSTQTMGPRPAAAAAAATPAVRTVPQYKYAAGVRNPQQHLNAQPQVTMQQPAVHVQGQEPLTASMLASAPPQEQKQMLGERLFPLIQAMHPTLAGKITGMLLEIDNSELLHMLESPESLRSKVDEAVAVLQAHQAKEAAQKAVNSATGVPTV
# eIF4H inh retest: recorded beside eIF4H inh, whose call it bears; inhibition, %; compound at 20 µM; confirmation average;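 mean of two retest wells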
# PABP polyA inh retest: also measured in PABP polyA inh; calls as there; inhibition, %; compound at 20 µM; confirmation repeats;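 mean of two retest wells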
# MT1-MMP act inh RFP: second read-out of MT1-MMP act inh, no call of its own (marks repeat the call); RFP signal change, %; measured here: RFP expression control read;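 0 = vehicle wells; hits needed this value within 50% of zero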
# Active calls of the source: *; i = inactive; u = inconclusive; x = not tested or not shown.
SMILES,Rce1 inh,MT1-MMP act inh,MT1-MMP act inh RFP,CSC inhib,HIV Env fusion,eIF4H inh,Yeast UUG start,PABP polyA inh,others
Cc1cnn(CCC(=O)NNC(=S)Nc2ccc(F)cc2)c1,i,-1,-3,-10,-51,1,-17,-3,
COc1cc(C(=O)Nc2cc(OC)c(OC)c(OC)c2)ccc1OCc1c(C)noc1C,x,5,1,-2,-10,x,-14,x,
N#Cc1cccc(NC(=O)CCn2ccnc2)c1,i,-1,2,-15,x,3,x,-4,
COc1ccccc1NC(=S)N(CCCN1CCOCC1)Cc1ccccn1,i,-2,19,-3,19,-12,-18,1,
CCC(CC)C(=O)N(C)c1c(C)nc2c(OCC=C(C)C)cccn12,x,9,-4,x,-58,x,-15,x,
CC(C)n1ncc(C(N)=O)c1N,i,-8,0,-11,-1,9,-19,15,
CC(=O)N1CCN(C(=O)c2cc3ccccc3o2)CC1,i,-1,2,-16,-1,-14,-12,-2,
CCN(CCN(C)C)C(=O)c1ccc2c(c1NCCO)C(=O)c1ccccc1C2=O,i,15,11,8,1,-1,x,-3,
O=[N+]([O-])c1cc(F)cc(F)c1Nc1cc(F)cc(F)c1,x,4,0,x,-19,x,-37,x,
Cn1ccc(=Nc2ccc(NC(=O)c3ccc(N=c4ccn(C)c5ccc([N+](=O)[O-])cc45)cc3)cc2)cc1,i,6,0,-9,-3,36,x,u,
CCCC(NC(=O)COc1cc2c(c3oc(=O)cc(C)c13)CCC(C)(C)O2)C(=O)O (stereo unspecified),i,0,4,0,0,-4,-12,-7,
CC(Sc1ncnc2ccccc12)C(=O)Nc1ccc2c(c1)OCO2 (stereo unspecified),i,-4,-4,-2,34,11,-23,2,
COCC(=O)NC1CCN(C(=O)Nc2ccc(Br)cc2)CC1,i,4,2,-10,-27,-4,-17,6,
O=C1CCCN2N=C(SCC(=O)Nc3nccs3)SC2=N1,i,2,7,-16,-1,28,-27,-3,
COc1cc(S(=O)(=O)NCCCN2CCOCC2)ccc1-n1cnnn1,i,-3,0,-9,1,-1,x,-2,
CC(=O)c1sc2nsc(SCCN3CCOCC3)c2c1N,i,-1,5,-9,-12,3,-18,21,
O=C(C1CC(c2ccc(F)cc2)=NO1)N1CCc2ccccc2C1 (stereo unspecified),i,2,3,8,-225,-2,-14,4,
CCCNc1nc(Cl)nc(NCc2cccnc2)n1,i,-1,1,-14,-91,18,x,u,
CSc1ccc(NC(=O)NCCCN2CCC(Cc3ccccc3)CC2)cc1,i,-2,0,26,-9,-5,-3,-5,
Cc1ccc2c(c1)N(CC(=O)NC1CCCC1)C(=O)c1cccnc1O2,i,-1,2,-7,-34,8,-19,2,
Cc1nc2ccc(S(=O)(=O)NCC(=O)NCCN3CCCCC3C)cc2s1 (stereo unspecified),i,2,4,0,x,-14,4,3,
CCOC(=O)N1CCN(C(c2ccc(C(C)C)cc2)c2sc3nc(C)nn3c2O)CC1 (stereo unspecified),i,5,4,8,-37,3,-2,0,
CCOc1ccccc1-n1c(SCC(N)=O)nnc1-c1cccnc1,i,-1,3,6,x,-3,-16,-1,
O=C(O)c1ccc(NC(=O)C2CCCCC2)cc1,i,-3,2,1,-48,2,-21,-6,
CC(=O)c1ccc(NC(=O)COC(=O)CCC2CCCC2)cc1,x,2,-4,-2,-16,x,-13,x,
CCOC(=O)N1CCC(n2c(SCC(=O)OCc3ccccc3)nc3ccsc3c2=O)CC1,i,1,-10,28,97*,-8,-10,4,
S=C(NCc1cccc(Cl)c1)NCc1ccco1,i,-5,-3,-1,-14,0,-20,-4,
COC(=O)CCCC(=O)NC1CCCN(C2Cc3ccccc3C2)C1 (stereo unspecified),i,-5,0,-3,-5,4,-21,9,
COc1ccc(Br)c(C(=O)Nc2nc3ccccc3[nH]2)c1,i,-1,0,0,-23,-13,-13,-5,
O=C(OCN1C(=O)c2ccccc2C1=O)c1cccs1,i,2,3,-16,x,-4,x,-3,

# Structural class: the compounds so far with bromine (2)
SMILES,Rce1 inh,MT1-MMP act inh,MT1-MMP act inh RFP,CSC inhib,HIV Env fusion,eIF4H inh,Yeast UUG start,PABP polyA inh,others
COCC(=O)NC1CCN(C(=O)Nc2ccc(Br)cc2)CC1,i,4,2,-10,-27,-4,-17,6,
COc1ccc(Br)c(C(=O)Nc2nc3ccccc3[nH]2)c1,i,-1,0,0,-23,-13,-13,-5,

# Other structures
SMILES,Rce1 inh,MT1-MMP act inh,MT1-MMP act inh RFP,CSC inhib,HIV Env fusion,eIF4H inh,Yeast UUG start,PABP polyA inh,others
COC(=O)CCC(=O)OC1(C)C(=O)C=C2C=C(C3CC3)N(C3CCCC3)C=C2C1=O (stereo unspecified),i,1,4,-9,-38,50,-11,42,eIF4H inh retest=17;PABP polyA inh retest=33
N#Cc1c(C(F)(F)F)cc(C2CC2)[nH]c1=O,i,-3,1,-8,1,-11,-14,20,
CCOC(=O)c1ccc(NC(=O)CSc2nc(=O)n3cccc(C)c3n2)cc1,i,2,-4,-11,27,x,-3,x,
COC(=O)[C@H](CCSC)NC(=O)NCc1ccccn1,i,2,6,11,-15,-2,-21,-4,
COc1ccc(C(=O)/C=C/Nc2ccc([N+](=O)[O-])cc2C)cc1OC,i,-41,4,-5,-48,7,-6,-8,
Cc1nc2c(c(=O)c3ccccc3n2C)c(=O)n1C1CCCCCC1,i,-2,-8,x,-70,-1,x,15,
CCOC(=O)C1CCCN(C(=O)c2ccc(C)cc2O)C1 (stereo unspecified),i,3,1,-1,1,-12,-8,-7,
COc1ccc(S(=O)(=O)N2CCOCC2)cc1NC(=O)COC(=O)CCOc1ccc(C)cc1,i,-3,2,4,-24,x,1,x,
CC(C)OCCCNC(=O)c1cccs1,i,2,-2,-8,x,-6,x,-12,
COc1cc(C(=O)Nc2ccc(S(=O)(=O)N3CCc4ccccc43)cc2)cc(OC)c1OC,i,7,-4,0,27,0,-2,-12,
Cc1n[nH]c(=S)c2nn(-c3cccc(Cl)c3)c(C)c12,i,x,x,x,x,-3,x,-4,
Cc1cc(C)cc(Nc2ncnc3nc[nH]c23)c1,i,8,2,-8,-12,6,-19,5,
O=C(NCCN1CCN(c2ccccc2Cl)CC1)Nc1ccccc1,i,4,4,x,3,-3,-13,-2,
CCOc1ccc(C(=O)Nc2cc(C)on2)cc1OCC,i,-1,5,-16,-107,-4,-22,-10,
Oc1ccc(C[C@@H]2CNC(=S)N2CCCCC2CCCCC2)cc1,i,4,-11,115*,-3,-1,-25,-9,
CC(C)N1CCC(=NNc2ccc([N+](=O)[O-])cc2S(=O)(=O)N2CCOCC2)CC1,i,11,6,-14,26,3,x,-9,
Cc1ccccc1S(=O)(=O)/N=C(/Nc1nc2ccccc2s1)c1ccccc1,x,2,-4,19,x,x,-16,x,
Cc1ccc2oc(-c3cccc(NC(=O)/C=C/c4cccc([N+](=O)[O-])c4)c3C)nc2c1,i,6,0,x,-11,5,x,3,
CC(=O)c1cccc(NC(=O)N2CCCC2C(=O)NCc2ccc(F)cc2)c1 (stereo unspecified),i,0,-2,-8,20,-10,-13,-7,
Cn1cccc1C1(C(F)(F)F)NCCNC1=O (stereo unspecified),i,3,7,-7,-28,-7,-1,-1,
CCOC(=O)N1CCN(C(=O)CCc2ccc(S(=O)(=O)NC(C)C)cc2)CC1,i,0,3,-22,-3,3,-4,-14,
Cc1ccc(NC(=O)/C(=C/c2cccc(Br)c2)NC(=O)c2ccco2)cc1,i,-16,-6,-11,-14,0,x,2,
O=C(O)c1ccccc1NCc1ccncc1,i,4,1,6,-9,-7,-9,-9,
O=C(N/C(=C/c1ccc(Br)cc1)C(=O)N1CCCCC1)c1ccccc1F,i,1,-3,-9,6,0,10,0,
COc1cccc(CNC(=O)CCCn2nc(C)c3c(C)n(-c4ccc(C)cc4)nc3c2=O)c1OC,i,6,-7,13,11,2,6,7,
Cc1cccc2cc(CN(Cc3cccs3)C(=S)NCc3ccco3)c(=O)[nH]c12,i,0,-6,x,0,-8,x,-4,
COc1ccc(C)cc1NC(=O)CSc1nnc(COc2ccc(C)cc2)n1Cc1ccco1,i,-1,-7,22,x,-9,-2,-8,
O=C(c1ccc(CN2CCOCC2)cc1)N1CCN(c2cccc(Cl)c2)CC1,i,2,1,22,x,-6,3,-6,
O=C(/C=C/c1ccc(Cl)cc1Cl)NCc1ccco1,i,2,-1,15,-93,0,-20,-11,
CCCCNC(=O)O[C@@H]1C[C@@H]2CCN3C(=O)CCC[C@H]([C@H]1CC)[C@H]23,i,4,-3,-7,-17,-3,-13,-4,
O=C(COC(=O)c1cc([N+](=O)[O-])ccc1NCc1ccccc1)NC1CCCCC1,i,4,5,-4,-313,-3,x,11,
CCCCC1=CC2=C(c3ccco3)C(=O)C(C)(OC(=O)c3ccc(OC)cc3)C(=O)C2=CN1Cc1ccccc1 (stereo unspecified),i,-18,7,16,-11,68,-2,40*,eIF4H inh retest=21;PABP polyA inh retest=54*
O=[N+]([O-])c1ccc2[nH]cc(S(=O)(=O)N3CCN(c4cccc(Cl)c4)CC3)c2c1,i,-1,-5,47,34,-14,-11,6,
COc1ccc(NC(=S)Nc2cc(C)[nH]n2)cc1Cl,i,-7,0,1,-61,-6,x,-2,
Cn1nc(C(C)(C)C)cc1NC(=O)Nc1ccc(Cl)cc1,i,4,2,-1,10,-2,0,16,
COc1cccc(/C=N/n2c(C3CCCCC3)n[nH]c2=S)c1O,i,-4,-4,0,13,-3,-7,-3,
CCOc1ccc(C2=C(C=C(C#N)C#N)C(c3ccccc3)c3ccccc3O2)cc1 (stereo unspecified),i,-4,-5,33,x,-18,-18,14,
Cc1ccc(CSC2=NCCN2S(=O)(=O)c2ccc(F)cc2)cc1,i,-2,-3,-10,19,99,-15,-7,eIF4H inh retest=-13;PABP polyA inh retest=0
COCCCN(C(=O)Nc1cccc(Cl)c1)C(C)c1ccccn1 (stereo unspecified),i,0,3,-1,-64,-5,-18,0,
O=C1c2ccccc2[C@@H]2C[C@@H](O)[C@H](Nc3ccccc3Cl)CCN12,x,2,-2,x,-11,x,-7,x,
CC(C)(C)c1nc2scc(-c3ccc(Br)cc3)c2c(=O)o1,i,-1,3,0,4,4,x,18,
Cc1ccc(C(=O)N2CCCCC2)cc1S(=O)(=O)N1CCCCCC1,i,-2,-1,-15,7,-3,-6,-3,
CC(Sc1nnc(-c2ccco2)n1C)C(=O)Nc1nccs1 (stereo unspecified),i,0,1,-2,26,x,-2,x,
Cc1noc(C)c1COc1ccc(C(=O)OCC(=O)NC23CC4CC(CC(C4)C2)C3)cc1,i,2,0,-1,x,-9,-13,0,
Cc1ccc(N(C(=O)CNC(=O)c2ccco2)C(C(=O)NCC2CCCO2)c2ccccc2)c(C)c1 (stereo unspecified),i,-2,0,-9,-1,-20,21,13,
CC(=O)Nc1ccc(C(=O)CN2C(=O)CSC2=O)cc1,i,0,0,-14,-9,0,-6,17,
CC(=O)N(CCC(Cc1ccccc1)c1ccc2c(c1)OCO2)Cc1ccccc1F (stereo unspecified),i,-3,3,24,x,-8,-25,6,
CCOC(=O)C1(C(F)(F)F)N=C(c2cccnc2)OC(N2CCOCC2)=N1 (stereo unspecified),i,4,7,16,x,-8,-8,12,

# Compound activity: PubChem, several laboratories
